miR-21 reporter – qHTS Assay for Modulators of miRNAs and/orActivators of miR-21 | 340,000 tested, under 10 active | HeLa miR-21 FLuc reporter, luciferase, 48 h | AID 2288, 2010 | Potency, µM (series often up to 38.3 µM), inactives show top-dose reporter change, positive = more light; active = well fitted rising curve with a large enough effect; inconclusive = small, poorly fitted or top-dose-only effect; inactive = no such curve, though single readings can be large or run the other way;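 also: % of control where 0% means no effect; miR-21 action dims this reporter so a rising signal means less miR-21 action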
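Compounds were titrated across several concentrations (up to approximately 40 uM) and incubated 48 hours with HeLa miR-21-FLuc reporter cells (miR-21 target sequence downstream of FLuc, endogenous miR-21). Readout was firefly luciferase luminescence after lytic detection reagent.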
Rango-impB inh – qHTS Assay for Inhibitors of Rango (Ran-regulated importin-beta cargo) - Importin beta complex formation; 340,000 tested, 0.031% active; AID 540263, 2011; Potency, µM (doses to about 92.2 µM), inactives show at the top dose inhibition of complex formation; Rango CFP/YFP FRET sensor + importin beta, 45 min; Importin subunit beta-1 (Homo sapiens), Q14974; active = rising FRET ratio curve, often small or poorly fitted; inconclusive = mostly compound fluorescence or quenching in the first reads; inactive = flat curves in all reads;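 also: potency is read from the fitted curve at half-maximal effect; 0% = DMSO wells and 100% = buffer wells lacking importin beta; nearly all actives have a fitted effect of over 15% in size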
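FRET biosensor Rango (snurportin 1 IBB between N-terminal EYFP and C-terminal Cerulean), 50 nM in PBS/1 mM DTT/0.02% Tween-20/0.1% BSA, preincubated 5 min RT with compound; 0.125 microM importin beta added, 45 min RT, CFP/YFP FRET ratio read.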
GLA inh pH 4.5 – qHTS Assay for Inhibitors of Human alpha-Galactosidase at pH 4.5 | purified enzyme, 4-MU-alpha-Gal fluorescence, pH 4.5 | 230,000 tested, under 10 active | activity change, negative = inhibition, % at 105 µM | AID 1467, 2008; inconclusive = small, poorly fitted or top-dose-only inhibition, or a rising curve; inactive = flat fitted curve, though single readings scatter; no compound was filed as active;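 also: 0% = full activity with enzyme and -100% = basal without enzyme; dose as in the result columns while the protocol names 77 µM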
Target sequence (P06280 whole entry, looked up): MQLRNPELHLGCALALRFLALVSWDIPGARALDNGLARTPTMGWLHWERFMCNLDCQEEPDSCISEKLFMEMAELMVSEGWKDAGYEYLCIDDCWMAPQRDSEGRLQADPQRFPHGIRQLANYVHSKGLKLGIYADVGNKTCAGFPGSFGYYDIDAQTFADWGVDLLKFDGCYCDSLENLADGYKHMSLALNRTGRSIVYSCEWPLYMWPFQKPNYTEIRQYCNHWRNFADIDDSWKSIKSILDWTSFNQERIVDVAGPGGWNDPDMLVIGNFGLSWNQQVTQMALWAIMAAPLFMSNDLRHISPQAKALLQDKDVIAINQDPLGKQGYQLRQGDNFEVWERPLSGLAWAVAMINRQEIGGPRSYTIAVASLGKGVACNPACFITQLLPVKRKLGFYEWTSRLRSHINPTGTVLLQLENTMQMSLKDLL
Rango dissoc inh – qHTS Assay for Inhibitors of RanGTP induced Rango (Ran-regulated importin-beta cargo) - Importin beta complex dissociation. Snurportin-1 (Homo sapiens) + GTP-binding nuclear protein Ran (Homo sapiens) + Importin …. Biochemical FRET Rango-importin beta, RanGTP-induced dissociation. Potency, µM (titrated, usually from 46.1 µM), for inactives: at the highest dose activity change, negative = inhibition. 340,000 tested, 0.071% active; active means falling FRET ratio curve, often poorly fitted, with flat reads before Ran was added; inconclusive means other falling curves, or compound fluorescence or quenching; inactive means flat or rising ratio curve;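 also: potency is read from the fitted curve at half-maximal effect; % of control where 0% means no effect; nearly all actives have a fitted effect of over 45% in size; -100% = wells without RanGTP and RCC1; the record marks most hits as doubtful in a second field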
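Rango FRET biosensor (snurportin-1 IBB flanked by N-terminal EYFP and C-terminal CFP10) at 0.1 uM, with 0.25 uM importin beta in PBS, 1mM DTT, 0.02% Tween-20, 0.1% BSA. 0.6 uM Ran, 2mM GTP and 0.2 uM RCC1 were then added for 45 min at room temperature. Inhibition read as loss of FRET rise.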
An asterisk follows results filed as active; ? = inconclusive; · = no result given; & = joins results of further samples. The list is partial, so the mix of outcomes need not match the whole.

SMILES | miR-21 reporter | Rango-impB inh | GLA inh pH 4.5 | Rango dissoc inh
CCOC(=O)C1=C(C)N(c2ccc(OC)cc2)C(=O)/C1=C\c1ccc(O)c(OCC)c1 | 26% | -5.5% | -7 | -26%
CC(C)(C)c1ccc(OCc2nc(-c3ccccn3)no2)c(Br)c1 | -62% | ? | 2 | -5%
CCOC(=O)CC1(c2ccc(OC)c(OC)c2)C(=O)c2ccccc2C1=O | -2% | 0.1% | -13 | 7%
CCCn1c(C)nc2c(c1=O)c1nc3ccccc3nc1n2CCC1=CCCCC1 | -3% | ? | 7 | ?
COC(=O)C(NC(=O)c1ccccc1)(Nc1nccs1)C(F)(F)F (stereo not given) | 1% | -0.3% | 4 | 7%
CC(C)NC(=O)CC(=O)N/N=C/c1cccs1 | -3% | -3.4% | -10 | -7%
CNc1nc(N)c([N+](=O)[O-])c(NCC2CCCO2)n1 (stereo not given) | -22% | -2.1% | -9 | -3%
CC(C)(C)c1ccc(CN2C(=O)CSC2=O)cc1 | 8% | -2.8% | -1 | -10%
NCCCNC(=O)Cn1c(=O)c2c3c(sc2n(Cc2ccccc2)c1=O)CCCC3 | -1% | 0.3% | · | 25%
O=C(NCC1CCCO1)c1nn2c(C(F)(F)F)cc(-c3cccs3)nc2c1Br (stereo not given) | -1% | ? | · | -9%
COc1ccc(C(=O)OCC(=O)Nc2c(C)cccc2C)c(OC)c1OC | -2% | 5.7% | · | 4%
O=C(COC(=O)c1ccc(S(=O)(=O)NCc2ccco2)cc1)NC1CCCCCC1 | -5% | -5.0% | -1 | 0%
CNC(=S)N/N=C1\C(=O)c2cccc3cccc1c23 | -5% | -4.8% | -5 | -14%
COC(=O)C1(S(=O)(=O)c2cccc3nsnc23)CC1 | -10% | 1.2% | 2 | 25%
OC(COCC1COc2ccccc2O1)CN1CCN(c2ccccc2F)CC1 (stereo not given) | -2% | -0.5% | 9 | ?
NS(=O)(=O)c1ccc(CNc2nc(-c3cccnc3)nc3ccccc23)cc1 | -9% | 0.2% | · | -6%
Cc1cccc(CSC2=NCCN2S(=O)(=O)c2ccc(F)cc2)c1 | -3% | -1.8% | · | -6%
CCOC(=O)c1ccc2[nH]c3c(c2c1)CCCC3 | -58% | ? | · | -5%
CCN(CC)c1nc(OCCNC(=O)Nc2ccccc2)nc(N(CC)CC)n1 | 7% | 1.5% | -9 | 7%
COc1cc(/C=N/c2oc(-c3ccccc3)cc2C#N)ccc1O | -18% | 4.9% | -1 | 2%
CCOC(=O)c1c(NC(=O)COC(=O)Cc2n[nH]c(=O)c3ccccc23)sc(C(=O)N(C)C)c1C | · | 4.9% | · | -5%
CCCCC1=CC2=CC(=O)C(C)(OC(=O)CC)C(=O)C2=CO1 (stereo not given) | · | ? | -8 | ?
COc1ccc(Cl)cc1Nc1nc(-c2sc(NC(=O)c3ccccc3)nc2C)cs1 | 0% | · | -7 | ·
CC(=O)Nc1ccc(-c2csc(Nc3ccc(S(N)(=O)=O)cc3)n2)cc1 | 1% | -10% | -2 | 0%
C[C@]12c3[nH]c4cc(-c5ccco5)ccc4c3CCN1C(=O)[C@@H](CC(=O)NCCC1=CCCCC1)C[C@@H]2C(=O)N1CCCCC1 | · | -3.1% | · | -4%
More compounds follow:
SMILES | miR-21 reporter | Rango-impB inh | GLA inh pH 4.5 | Rango dissoc inh
COc1ccc(NC(=O)NNC(=O)CCC(=O)Nc2ccccc2Cl)cc1 | 0% | -1.8% | 5 | 6%
COc1ccc(C(=O)NC(=S)N2CCN(C)CC2)cc1Br | -15% | -0.2% | -1 | 2%
COc1ccc(OC)c(NC(=O)c2sc3ncnc(N4CCN(c5ccccn5)CC4)c3c2C)c1 | 5% | 3.8% | · | 9%
O=C(O)CCn1c(CO)nc2ccccc21 | 0% | 1.7% | 14 | -1%
O=C(NC(=S)Nc1ccc(S(=O)(=O)N2CCCCC2)cc1)c1ccc(Cl)cc1 | 0% | -0.6% | -9 | 20%
COc1ccc(OCCN2C(=O)c3cccc(N)c3C2=O)cc1 | -78% | ? | · | ?
COCC(C)n1c(C)cc(C(=O)CN2C(=O)NC(Cc3c[nH]c4ccccc34)C2=O)c1C (stereo not given) | -6% | -0.7% | -13 | -6%
CC(C)(C)NC(=O)c1ccc2nccnc2c1 | -3% | 0.8% | -4 | -2%
CC(C)c1ccc(NC(=O)CCCC(=O)NCCc2ccccc2)cc1 | -2% | -2.4% | · | 17%
COc1cccc(/C=C2/Oc3ccccc3N(CC(=O)NCC3CCCO3)C2=O)c1 (stereo not given) | -2% | 1.1% | · | -19%
NC(=O)c1nc(C(=O)N2CCCCC2)c2ccccc2n1 | · | -1.8% | · | 14%
COc1ccc(/C=C(/NC(=O)c2ccc(C)cc2)C(=O)N2CCCC2)cc1OC | -9% | -1.6% | · | -5%
Cc1ccc(C)c(NC(=O)COC(=O)CCCN=C2NS(=O)(=O)c3ccccc32)c1 | -2% | -0.5% | 1 | 3%
O=C(c1cccc(Oc2c(Cl)cccc2[N+](=O)[O-])c1)N1CCCCC1 | 2% | 8.2% | 5 | 3%
Cc1onc(-c2ccccc2)c1-c1ccc(S(N)(=O)=O)cc1 | 5% | -1.5% | 6&2 | 11%
CCN(CC)CCCn1c2c(c(SCC(=O)Nc3cccc4ccccc34)nc1=O)CCC2 | · | -1.4% | · | -1%
CN(Cc1ccccc1)C(=O)c1ccc(NC(=O)Cc2cccc(NC(=O)C3CCCN(C(=O)C4CCCC4)C3)c2)cc1 (stereo not given) | · | 3.4% | · | 0%
O=S(=O)(Cc1nnnn1-c1ccccc1)c1ccccc1 | -7% | 0.8% | · | 20%
CC(OC(=O)c1ccc(S(=O)(=O)N2CCCCC2)cc1)C(=O)NC1CCCCC1C (stereo not given) | 1% | -0.4% | · | 4%
O=C(CCN1C(=O)/C(=C/c2ccccc2Cl)SC1=S)Nc1ccccn1 | 0% | ? | · | 2%
COc1ccccc1NC(=O)Cn1c(=O)n(C)c(=O)c2sc3c(c21)COC(C)(C)C3 | -6% | 3.4% | · | 5%
CC1=C(C(N)=O)C(c2cccs2)n2ncnc2N1 (stereo not given) | 1% | ? | 3 | 0%
CCN(C[C@H]1N[C@@](C)(C(=O)OC)[C@H]2C(=O)N(C)C(=O)[C@@H]12)S(=O)(=O)c1ccc(C(F)(F)F)cc1 | · | -0.5% | · | 12%
Cc1ccc(-c2ccc(C(=O)Nc3cccc(F)c3)o2)c2ccccc12 | -7% | 0.4% | 13 | 6%
Cc1ccccc1NC1=CC(=O)CC(C)(C)C1 | -2% | 2.1% | -3 | -7%
The list continues.
SMILES | miR-21 reporter | Rango-impB inh | GLA inh pH 4.5 | Rango dissoc inh
CCCCCC(=O)N1CCN(c2ccc(C(C)=O)cc2F)CC1 | -12% | -0.1% | 4 | -8%
Cc1c(OCC(=O)NCc2cccnc2)ccc2c3c(c(=O)oc12)CCC3 | -7% | 0.4% | · | -1%
COc1ccccc1CN1C(=O)CNC1=S | -4% | 1.9% | · | 8%
COCCNc1oc(-c2ccc(Cl)cc2)nc1C#N | -60% | 0.1% | -16 | -13%
CCOc1ccc2nc(NC(=O)CSc3nc4ccccc4c(=O)n3Cc3ccco3)sc2c1 | -3% | -1.0% | -6 | -17%
O=C1NC(=O)c2cc3ccccc3cc21 | · | 2.7% | · | -1%
CCOC(=O)c1ccc(S(=O)(=O)N2CCN(C(=O)CSc3nc4ccccc4o3)CC2)cc1 | -4% | ? | -2 | 0%
O=S(=O)(Nc1ccc(N=Nc2ccc(O)c3ccccc23)cc1)c1ccccc1 | 5% | 3.7% | -25 | -6%
CCC1(CC)NC(=O)N(CC(=O)OCn2nnc3ccccc3c2=O)C1=O | -13% | 1.3% | -2 | 13%
FC(F)(F)c1cccc(Nc2ncnc3ccccc23)c1 | 10% | 3.2% | -15 | -6%
CCOC(=O)C1=C(C(=O)OCC)N(CC2CCCCC2)CCC1=O | · | -2.3% | · | 16%
CCCCCCNCCn1cnc2c(N)ncnc21 | -3% | 5.4% | 3 | -12%
CC(=O)NC(CC(=O)NCCc1ccccc1)c1ccccc1 (stereo not given) | -3% | -1.0% | · | 14%
CN(c1ccccc1)c1nc(N)c([N+](=O)[O-])c(NCCO)n1 | -29% | 0.1% | -24 | 1%
COc1cc(/C=C/C(=O)O)ccc1S(=O)(=O)N1CCCc2ccccc21 | -1% | 0.6% | -1 | 13%
COc1ccc(C(=O)N/C(=C\c2cn(C)c3ccccc23)C(=O)N2CCOCC2)cc1 | -2% | 0.3% | · | 1%
CNc1nc(NCc2ccccc2)c2ccccc2n1 | 18% | 3.2% | · | 6%

Among those listed so far, these contain a halogen.
SMILES | miR-21 reporter | Rango-impB inh | GLA inh pH 4.5 | Rango dissoc inh
CC(C)(C)c1ccc(OCc2nc(-c3ccccn3)no2)c(Br)c1 | -62% | ? | 2 | -5%
COC(=O)C(NC(=O)c1ccccc1)(Nc1nccs1)C(F)(F)F (stereo not given) | 1% | -0.3% | 4 | 7%
O=C(NCC1CCCO1)c1nn2c(C(F)(F)F)cc(-c3cccs3)nc2c1Br (stereo not given) | -1% | ? | · | -9%
OC(COCC1COc2ccccc2O1)CN1CCN(c2ccccc2F)CC1 (stereo not given) | -2% | -0.5% | 9 | ?
Cc1cccc(CSC2=NCCN2S(=O)(=O)c2ccc(F)cc2)c1 | -3% | -1.8% | · | -6%
COc1ccc(Cl)cc1Nc1nc(-c2sc(NC(=O)c3ccccc3)nc2C)cs1 | 0% | · | -7 | ·
COc1ccc(NC(=O)NNC(=O)CCC(=O)Nc2ccccc2Cl)cc1 | 0% | -1.8% | 5 | 6%
COc1ccc(C(=O)NC(=S)N2CCN(C)CC2)cc1Br | -15% | -0.2% | -1 | 2%
O=C(NC(=S)Nc1ccc(S(=O)(=O)N2CCCCC2)cc1)c1ccc(Cl)cc1 | 0% | -0.6% | -9 | 20%
O=C(c1cccc(Oc2c(Cl)cccc2[N+](=O)[O-])c1)N1CCCCC1 | 2% | 8.2% | 5 | 3%
O=C(CCN1C(=O)/C(=C/c2ccccc2Cl)SC1=S)Nc1ccccn1 | 0% | ? | · | 2%
CCN(C[C@H]1N[C@@](C)(C(=O)OC)[C@H]2C(=O)N(C)C(=O)[C@@H]12)S(=O)(=O)c1ccc(C(F)(F)F)cc1 | · | -0.5% | · | 12%
Cc1ccc(-c2ccc(C(=O)Nc3cccc(F)c3)o2)c2ccccc12 | -7% | 0.4% | 13 | 6%
CCCCCC(=O)N1CCN(c2ccc(C(C)=O)cc2F)CC1 | -12% | -0.1% | 4 | -8%
COCCNc1oc(-c2ccc(Cl)cc2)nc1C#N | -60% | 0.1% | -16 | -13%
FC(F)(F)c1cccc(Nc2ncnc3ccccc23)c1 | 10% | 3.2% | -15 | -6%

Bioassay records (PubChem)
